TRPML1 ag: human mucolipin-1 channel agonism; Q9GZU1; TRPML1-expressing cells, Ca2+ dye fluorescence, FDSS; host cell line not named in the record; reference of the full effect not given here; activation, % (test concentration not listed); 0.12% of 410,000 active; AID 624414; in the data active = activation above about 50%; inconclusive = about 30% to 50%; inactive = below about 30%; further: 0% is about no effect; the text of the record puts the active cut at 80%
Target sequence (Q9GZU1 whole entry, looked up): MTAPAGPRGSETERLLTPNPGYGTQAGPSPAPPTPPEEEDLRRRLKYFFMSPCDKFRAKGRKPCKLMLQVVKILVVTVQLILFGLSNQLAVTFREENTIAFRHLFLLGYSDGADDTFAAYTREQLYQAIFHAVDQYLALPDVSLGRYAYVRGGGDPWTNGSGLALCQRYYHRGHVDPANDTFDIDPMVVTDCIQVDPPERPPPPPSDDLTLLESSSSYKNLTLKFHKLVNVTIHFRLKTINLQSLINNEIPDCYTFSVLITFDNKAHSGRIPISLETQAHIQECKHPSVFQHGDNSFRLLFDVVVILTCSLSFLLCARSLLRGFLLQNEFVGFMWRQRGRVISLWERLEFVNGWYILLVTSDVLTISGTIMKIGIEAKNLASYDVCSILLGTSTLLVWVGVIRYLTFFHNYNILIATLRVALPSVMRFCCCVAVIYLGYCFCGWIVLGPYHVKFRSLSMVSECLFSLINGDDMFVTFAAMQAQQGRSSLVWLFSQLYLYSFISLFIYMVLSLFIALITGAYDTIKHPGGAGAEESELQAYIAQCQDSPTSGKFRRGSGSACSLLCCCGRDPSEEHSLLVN
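TRPML1-DL cells, Tet-induced overnight (~16 h, 37 degrees C), loaded 45-90 min at room temperature with Ca8 no-wash calcium dye plus quencher. FDSS fluorescence: 10 s baseline, compound pin-transfer, 110 s agonist read, then EC80 54-4 (4uM final) and 110 s antagonist read.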
Six1-Eya2 blk: blocks human Six1 binding to Eya2 | Q15475+O00167 | AlphaScreen GST-Six1/His-Eya2 binding, biochemical; hits give low values; control for the full effect not named in the record | activity change, % (no concentration beside the values) | 0.56% of 360,000 active | AID 651725; in the data active = activity change below about -65%; inconclusive = about -30% to -65%; inactive = above about -30%; further: on the % scale 0 is the no-effect control and ±100 the full control effect; compound concentration not given in the record
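AlphaScreen luminescence read after one hour at 37 °C in darkness. Pin-transferred compounds met GST-Six1 and His-Eya2 protein (5X stock 250 nM/500 nM) plus glutathione donor and Ni-chelate acceptor beads (5X, 50 ug/mL).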
PINK1 modulator: PINK1 expression modulation; PINK1 immunofluorescence, high-content cytometry, 24 h; Potency, µM (titrated, usually from 76.6 µM), for inactives: top-dose activation (PINK1 increase), hits mostly activators; 0.2% of 410,000 active; AID 624263; active = well fitted activation curve with a large enough effect; inconclusive = small, poorly fitted or top-dose-only effect; inactive = flat fitted curve, though single readings scatter; cell line not stated here;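 further: potency means the concentration at half of the fitted maximal effect; % of control where 0% means no effect; nearly all actives have a fitted effect of over 65% in size; a mitochondrial uncoupler was the plate control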
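Fluorescence from anti-PINK1 antibody, together with nuclear and cell stains, was scanned on a laser-scanning cytometer. Before staining, stable-line cells were incubated 24 hours with compounds at 5 concentrations; primary antibody 12 h at 10 degrees C.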
D2 agonist: agonists of human D2 dopamine receptor (beta-arrestin); P14416; DiscoveRx PathHunter D2 beta-arrestin, luminescence, 90 min; 100% = 57 uM dopamine signal; activation, % (concentration not given with the values); 0.084% of 360,000 active; AID 624465; in the data active = activation above about 40%; inconclusive = about 15% to 40%; inactive = below about 15%; further: compound concentration not given in the record; the text of the record calls up to 30% inactive
Target sequence (P14416 whole entry, looked up): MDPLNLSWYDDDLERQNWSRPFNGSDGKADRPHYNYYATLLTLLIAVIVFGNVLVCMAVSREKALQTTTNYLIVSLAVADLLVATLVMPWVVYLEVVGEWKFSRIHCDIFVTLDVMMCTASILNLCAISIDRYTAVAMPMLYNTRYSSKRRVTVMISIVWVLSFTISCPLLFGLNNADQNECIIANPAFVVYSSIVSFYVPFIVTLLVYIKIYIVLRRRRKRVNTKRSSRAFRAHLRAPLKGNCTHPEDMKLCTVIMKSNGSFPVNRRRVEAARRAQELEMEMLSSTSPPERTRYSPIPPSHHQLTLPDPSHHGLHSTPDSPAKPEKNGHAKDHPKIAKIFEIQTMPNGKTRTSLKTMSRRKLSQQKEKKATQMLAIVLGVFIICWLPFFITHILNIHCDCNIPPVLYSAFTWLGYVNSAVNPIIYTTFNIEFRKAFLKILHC
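DiscoveRx PathHunter D2 beta-arrestin cells (2,100/well) attached overnight, then compound-stimulated 90 min at 37 C in HBSS/10 mM HEPES/0.1% Tween-20 buffer; beta-galactosidase complementation read by luminescence after 1 h at ambient temperature. Dopamine 57 uM final (EC100) as control.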
TRPML1 inh: inhibitors of human TRPML1 channel; Q9GZU1; TRPML1-inducible cells, Ca2+ dye fluorescence, FDSS; hits give low values; inhibition of EC80 agonist-evoked calcium signal; activity change, negative = inhibition, % (concentration not given with the values); 0.02% of 390,000 active; AID 624415; in the data active means activity change below about -50%; inconclusive means about -30% to -50%; inactive means above about -30%;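 further: stimulus is agonist 54-4 at its EC80 concentration; on the % scale 0 is the no-effect control and ±100 the full control effect; compound concentration not given in the record; the text of the record puts the active cut at -80%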
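TRPML1-DL cells, Tet-induced overnight (~16 h, 37 °C) at 1,500 cells/well, were loaded with Ca8 no-wash dye plus quencher for 45-90 min at room temperature. Compounds were pinned during FDSS kinetic reading; agonist 54-4 at EC80 (4 uM final) then added.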
D2 potentiator: positive allosteric modulators of human D2 dopamine receptor | DiscoveRx D2 beta-arrestin cells, luminescence, 90 min; 100% = 57 uM dopamine signal | 0.23% of 360,000 active | P14416 | AID 624464 | potentiation, % (concentration not given with the values); active = potentiation of 50% or more; inconclusive = 30% to 50%; inactive = 30% or less;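 further: compound concentration not given in the record; tested on top of an EC20 dose of dopamine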
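PathHunter D2 cells, attached overnight at 37 deg C, received compound in DMSO plus dopamine at EC20 (50 nM final) for 90 min at 37 deg C. Beta-arrestin recruitment was read as luminescence after 1 h with detection reagent at ambient temperature.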
* hit, by the source's call; [ ] = another dose, or the depositor's remark.

Screening CCCCn1nnnc1SCC(=O)Nc1cccc(C)c1 returned TRPML1 ag -0.3, Six1-Eya2 blk 21, PINK1 modulator -0.1%, D2 agonist -2.2, TRPML1 inh -1 and D2 potentiator -5.
Screening CCOC(=O)C1=C(C)NC(C)=C(C(=O)OCC)C1C returned TRPML1 ag 1.4, Six1-Eya2 blk 13, PINK1 modulator 1.8%, D2 agonist 2.6, TRPML1 inh 4 and D2 potentiator -2.
`CCC(C)NC(=O)C1CCN(S(=O)(=O)N2CCCC2)CC1` (stereo unspecified) gave TRPML1 ag 1.5, Six1-Eya2 blk 5, PINK1 modulator 4.1%[38.3 µM], D2 agonist 0.0, TRPML1 inh 8 and D2 potentiator 0.
`O=C1CC(SCc2nc3ccccc3[nH]2)C(=O)N1c1cccc(Cl)c1` (stereo unspecified) gave TRPML1 ag 0.5, Six1-Eya2 blk -8, PINK1 modulator -2.7%, D2 agonist -3.6, TRPML1 inh 3 and D2 potentiator -13.
Screening CCOC(=O)Cc1cc(=O)[nH]c(/N=C(\N)Nc2ccc(OC)cc2)n1 returned TRPML1 ag 1.0, Six1-Eya2 blk 10, PINK1 modulator 0.9%, D2 agonist -0.6, TRPML1 inh 54 and D2 potentiator -3.
Screening O=C(CCN1CCN(c2ccccc2F)CC1)Nc1ccc2c(c1)OCO2 returned TRPML1 ag -0.5, Six1-Eya2 blk -2, PINK1 modulator -0.6%[38.3 µM], D2 agonist inconclusive, TRPML1 inh 3 and D2 potentiator 3.
`O=C(O)c1ccc(N/N=C/c2cn(Cc3ccc(F)cc3)c3ccccc23)cc1` gave Six1-Eya2 blk -8, PINK1 modulator -0.1%, D2 agonist 8.5 and D2 potentiator 6.
`COc1ccc(-c2csc(NC(=O)c3ccoc3C)n2)cc1` gave TRPML1 ag 3.0, Six1-Eya2 blk -3, PINK1 modulator 3.5%, D2 agonist 2.3, TRPML1 inh 13 and D2 potentiator 1.
For CCCCCCCC(=O)NNC(=O)c1ccc([N+](=O)[O-])cc1 the results were TRPML1 ag 0.6, Six1-Eya2 blk 3, PINK1 modulator 5.0%[38.3 µM], D2 agonist -0.2, TRPML1 inh 15 and D2 potentiator 1.
COc1ccc(NC(=O)CN(C)C(=O)c2cc(-c3ccccc3)nc3ccccc23)cc1 was read as TRPML1 ag 0.5, Six1-Eya2 blk -7, PINK1 modulator -1.0%, D2 agonist -2.0, TRPML1 inh 4 and D2 potentiator -20.
CCCCOCCCNS(=O)(=O)Cc1ccccc1 was read as TRPML1 ag 0.0, Six1-Eya2 blk -5, PINK1 modulator 2.8%[38.3 µM], D2 agonist -1.1, TRPML1 inh -16 and D2 potentiator 4.
Screening c1ccc(Cc2noc(CN3CCN(C4CCc5ccccc5C4)CC3)n2)cc1 (stereo unspecified) returned TRPML1 ag -0.1, Six1-Eya2 blk -15, PINK1 modulator 2.0%, D2 agonist -6.3, TRPML1 inh 13 and D2 potentiator -10.
Screening CC(C)(Oc1ccc(Br)cc1Cl)C(=O)Nc1ccon1 returned TRPML1 ag 1.4, Six1-Eya2 blk 3, PINK1 modulator 6.5%, D2 agonist -5.1, TRPML1 inh -8 and D2 potentiator -8.
CC(NCc1ccc(-c2ccccc2)cc1)C(O)c1ccccc1 (stereo unspecified) was read as TRPML1 ag 2.3, Six1-Eya2 blk -1, PINK1 modulator -2.0%, D2 agonist -5.9, TRPML1 inh -11 and D2 potentiator -35.
For Cc1ccc(Cn2c(C(CO)Nc3nc(-c4ccc(F)cc4)cs3)nc3ccccc32)cc1 (stereo unspecified) the results were TRPML1 ag -0.5, Six1-Eya2 blk -10, PINK1 modulator -1.1%, D2 agonist -2.9, TRPML1 inh 12 and D2 potentiator -3.
`O=C(/C=C/c1cccc([N+](=O)[O-])c1)NCCSCc1ccc(Cl)cc1Cl` gave TRPML1 ag 4.5, Six1-Eya2 blk -4, PINK1 modulator -0.2%, D2 agonist 6.7, TRPML1 inh 4 and D2 potentiator 4.
CC/C(=N\NC(=O)COc1ccc(Br)cc1)c1ccc(OC)c(OC)c1 was read as TRPML1 ag 1.6, Six1-Eya2 blk -15, PINK1 modulator 5.5%, D2 agonist -3.9, TRPML1 inh 41 and D2 potentiator -10.
`Cc1cccc(C(=O)n2cnnc2N)c1` gave TRPML1 ag 0.2, Six1-Eya2 blk 0, PINK1 modulator -1.8%, D2 agonist -2.4, TRPML1 inh 13 and D2 potentiator -8.
O=C(OCc1cccc([N+](=O)[O-])c1)c1ccncc1 was read as TRPML1 ag -0.5, Six1-Eya2 blk 1, PINK1 modulator -0.9%, D2 agonist -1.4, TRPML1 inh 13 and D2 potentiator -3.
Cc1ccc(-c2noc(CSc3nnnn3-c3ccccc3)n2)cc1 was read as TRPML1 ag 5.3, Six1-Eya2 blk 22, D2 agonist -4.4, TRPML1 inh 11 and D2 potentiator 4.
Screening CC1=C(C(=O)OCc2ccccc2)C(c2cccc(F)c2)NC(=O)N1 (stereo unspecified) returned TRPML1 ag -0.2, Six1-Eya2 blk -10, PINK1 modulator 1.5%, D2 agonist 44*, TRPML1 inh -26 and D2 potentiator 72*.
Screening CCC(=O)NC1(C(F)(F)F)C(=O)Nc2c1c(=O)n(C)c(=O)n2C (stereo unspecified) returned TRPML1 ag -0.9, Six1-Eya2 blk -3, PINK1 modulator 4.1%, D2 agonist -0.2, TRPML1 inh -23 and D2 potentiator 7.
`CN(C)c1ccc(/C=N/NC(=O)CCc2c[nH]c3ccccc23)cc1` gave TRPML1 ag 4.4, Six1-Eya2 blk -20, PINK1 modulator 5.7%, D2 agonist -2.7, TRPML1 inh -2 and D2 potentiator -5.
For Cc1c(S(=O)(=O)N2CCCC(C)C2)c(=O)n(C)c(=O)n1C (stereo unspecified) the results were TRPML1 ag -0.3, Six1-Eya2 blk 3, PINK1 modulator 3.6%, D2 agonist 4.5, TRPML1 inh 0 and D2 potentiator -1.

2 compounds drawn at random from those above:
`Cc1cccc(C(=O)n2cnnc2N)c1` gave TRPML1 ag 0.2, Six1-Eya2 blk 0, PINK1 modulator -1.8%, D2 agonist -2.4, TRPML1 inh 13 and D2 potentiator -8.
Screening CC(C)(Oc1ccc(Br)cc1Cl)C(=O)Nc1ccon1 returned TRPML1 ag 1.4, Six1-Eya2 blk 3, PINK1 modulator 6.5%, D2 agonist -5.1, TRPML1 inh -8 and D2 potentiator -8.

Further entries:
`COc1ccc(C2CC(=O)Nc3c2c(C)nn3-c2nc(C)cc(C)n2)c(OC)c1OC` (stereo unspecified) gave TRPML1 ag -0.7, PINK1 modulator 0.1% and TRPML1 inh -17.
CCN1C(=NCCCCO)N[C@@H](c2cccc(F)c2)C(C(=O)OC)=C1C was read as TRPML1 ag 0.5, Six1-Eya2 blk -15, PINK1 modulator 1.9%, D2 agonist -1.8, TRPML1 inh 2 and D2 potentiator -2.
Screening COC(=O)C1C2CCC(C2)C1C(=O)OCC(=O)c1ccccc1 (stereo unspecified) returned TRPML1 ag 0.6, Six1-Eya2 blk -2, PINK1 modulator 1.9%, D2 agonist -3.4, TRPML1 inh 16 and D2 potentiator -9.
COc1ccccc1C(=O)NC(=O)COC(=O)c1ccc(Br)o1 was read as TRPML1 ag 1.1, Six1-Eya2 blk -4, PINK1 modulator 0.2%, D2 agonist -3.0, TRPML1 inh 5 and D2 potentiator 3.
`COc1ccc(Cl)cc1NS(=O)(=O)c1ccc2[nH]c3c(c2c1)CCCC3` gave TRPML1 ag 2.3, PINK1 modulator inconclusive and TRPML1 inh 21.
CC(Oc1ccc(Br)cc1)C(=O)N(Cc1ccccc1)c1c(N)n(Cc2ccccc2)c(=O)[nH]c1=O (stereo unspecified) was read as TRPML1 ag -0.1, Six1-Eya2 blk 12, PINK1 modulator 2.1%, D2 agonist -4.6, TRPML1 inh 18 and D2 potentiator -28.
For OC(CN1CCCCC1)c1ccc2c3c(cccc13)CC2 (stereo unspecified) the results were TRPML1 ag -0.9, Six1-Eya2 blk 2, PINK1 modulator -0.6%, D2 agonist -4.7, TRPML1 inh -4 and D2 potentiator -15.
CCc1nc2ccc(C(=O)N3CCN(C)CC3)cn2c1N(C)CCCc1ccccc1 was read as TRPML1 ag 0.4, Six1-Eya2 blk -1, PINK1 modulator 0.4%, D2 agonist -3.2, TRPML1 inh 10 and D2 potentiator -16.
For CC(C)N(Cc1ccccc1)C(=O)C1CCCN(c2ncnc3onc(-c4ccc(F)cc4)c23)C1 (stereo unspecified) the results were TRPML1 ag 1.2, PINK1 modulator 2.7% and TRPML1 inh 40.
Screening Cc1cc(NC(=O)Cn2nc(-c3cccs3)ccc2=O)cc(C)c1Br returned TRPML1 ag -0.6, Six1-Eya2 blk 8, PINK1 modulator 6.4%, D2 agonist -0.1, TRPML1 inh -19 and D2 potentiator -2.
`COCCN1Cc2cccc(C(=O)Nc3ccc(S(=O)(=O)N4CCCCC4)cc3)c2C1=O` gave TRPML1 ag -0.6, Six1-Eya2 blk 2, PINK1 modulator 5.5%, D2 agonist -3.8, TRPML1 inh -7 and D2 potentiator -9.
For CC(C)(C)OC(=O)C[C@H]1C/C=C\C[C@H](CC(=O)N[C@H](CO)Cc2ccccc2)C(=O)N2CCC[C@@H]2COC1=O the results were TRPML1 ag -0.3, Six1-Eya2 blk 8, PINK1 modulator -0.4%, D2 agonist -0.6, TRPML1 inh -8 and D2 potentiator 2.
Screening Cc1cccc(C)c1NC(=O)CSc1nnc(NC(=O)C2CC2)s1 returned TRPML1 ag -0.3, Six1-Eya2 blk -15, PINK1 modulator 0.9%, D2 agonist -2.4, TRPML1 inh -4 and D2 potentiator -2.
For Cc1cc(=O)[nH]c(N/N=C/c2ccc(-c3ccc([N+](=O)[O-])cc3)o2)n1 the results were TRPML1 ag -0.4, Six1-Eya2 blk -71*, PINK1 modulator 0.5%, D2 agonist -1.7, TRPML1 inh 13 and D2 potentiator 3.
`CC(C)(C)c1ccc(OCC(=O)NNC(=O)Cc2cccs2)cc1` gave TRPML1 ag -0.8, Six1-Eya2 blk 4, PINK1 modulator 8.6%, D2 agonist -2.9, TRPML1 inh 14 and D2 potentiator 4.

Copied from the entries so far, 4 compounds:
For CC(C)(C)OC(=O)C[C@H]1C/C=C\C[C@H](CC(=O)N[C@H](CO)Cc2ccccc2)C(=O)N2CCC[C@@H]2COC1=O the results were TRPML1 ag -0.3, Six1-Eya2 blk 8, PINK1 modulator -0.4%, D2 agonist -0.6, TRPML1 inh -8 and D2 potentiator 2.
Screening Cc1cccc(C)c1NC(=O)CSc1nnc(NC(=O)C2CC2)s1 returned TRPML1 ag -0.3, Six1-Eya2 blk -15, PINK1 modulator 0.9%, D2 agonist -2.4, TRPML1 inh -4 and D2 potentiator -2.
For Cc1cc(=O)[nH]c(N/N=C/c2ccc(-c3ccc([N+](=O)[O-])cc3)o2)n1 the results were TRPML1 ag -0.4, Six1-Eya2 blk -71*, PINK1 modulator 0.5%, D2 agonist -1.7, TRPML1 inh 13 and D2 potentiator 3.
`CC(C)(C)c1ccc(OCC(=O)NNC(=O)Cc2cccs2)cc1` gave TRPML1 ag -0.8, Six1-Eya2 blk 4, PINK1 modulator 8.6%, D2 agonist -2.9, TRPML1 inh 14 and D2 potentiator 4.
